ALR H2O2 inh = blocks human ALR sulfhydryl oxidase activity. 290,000 compounds, 3.8% hits. inhibition, % (no concentration beside the values). P55789. purified ALR, DTT oxidation, H2O2 HRP-luminol luminescence;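 active = mean and each replicate at 75% or more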;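 also: stock transfer was 7.5 nL into about 7.5 µL; 0% = neutral wells and 100% = wells with inactivated enzyme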
E coli growth = E. coli growth inhibition. Escherichia coli growth, OD600, 23 h; stronger effect = lower value. OD600 absorbance (test concentration not listed). 330,000 compounds, 0.21% hits;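 active = OD600 absorbance below the run mean of sample wells minus 3.6 SD, in any replicate, cut at about 0.56 in these data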;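 also: stock transfer was 300 nL into about 60 µL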
FGF22 binding = FGF22 (human) thermal shift binding. calls only at 9.99 µM. AID 651658. Q9HCT0. 340,000 compounds, 1.5% hits. recombinant FGF22 thermal shift, SYPRO orange fluorescence; percent of sucrose octasulfate shift, DMSO zero;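 active = melting point raised past a set limit in the mean and every replicate; three in four hits are not shown here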
Beta2AR agonist = agonists of human beta-2 adrenergic receptor inducing internalization | 340,000 compounds, 0.43% hits | Am2.2-beta2AR cells, FAP receptor internalization, flow cytometry; reference of the scale not given here | response, % (test concentration not listed) | AID 504454 | P07550;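 active = response above a set limit, near 3 SD of response in nonfluorescent compounds, cut at about 42% in these data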;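 also: stock transfer was 100 nL into about 11 µL; a reference agonist was the positive control; negative values mostly stem from fluorescent compounds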
HNF4A DNA FP = change in binding of human HNF4 alpha to DNA; P41235; HNF4a-FITC DNA binding, fluorescence polarization, 1 h; activity change, % at 10 µM; 360,000 compounds, 0.3% hits; in the data active = activity change above about 30%, passing the limit was not always enough;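 also: controls were the assay level and a saturating level of protein; the project sought stronger binding though the title names inhibitors; some compounds called inactive have numbers as strong as hits; positive values seem to mean higher polarization but the record does not say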
UCH37 DUB inh = inhibitors of human deubiquitinating enzyme UCH37. purified proteasome/UCH37, Ub-AMC cleavage fluorescence. inhibition, % (concentration not given with the values). 330,000 compounds, 0.33% hits. AID 588478;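 active = mean of two replicates above 20%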;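 also: 0% = compound-free wells with enzyme and 100% = wells lacking proteasome; stock transfer was 100 nL into about 20 µL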
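System: Proteasome-associated human UCH37 deubiquitinase; Input: 0.15 nM proteasome in added enzyme buffer; Also added: Ub-AMC substrate from 1 µM stock; Incubation: 30 min compound-proteasome preincubation then 25 min substrate reaction, room temperature; Detection: fluorescence, ex 355 nm, em 460 nm; Read-out: % inhibition of Ub-AMC cleavage fluorescence; Benchmarks: no-proteasome and no-compound wells.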
LANA-H2B inh = blocks KSHV LANA binding to histone H2A/H2B | 320,000 compounds, 0.6% hits | inhibition, % (test concentration not listed) | cell-free LANA-H2A/H2B peptide, fluorescence polarization; in the data active = inhibition mostly above about 10%, no sharp cut-off; inactive = mostly below about 6.7%;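 also: stock transfer was 7.5 nL into about 10 µL; 0% = median of vehicle wells and 100% = median of positive control wells; one replicate is shown; the record names a cut of 25% in any replicate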
Target sequence (Q9QR71 whole entry, looked up): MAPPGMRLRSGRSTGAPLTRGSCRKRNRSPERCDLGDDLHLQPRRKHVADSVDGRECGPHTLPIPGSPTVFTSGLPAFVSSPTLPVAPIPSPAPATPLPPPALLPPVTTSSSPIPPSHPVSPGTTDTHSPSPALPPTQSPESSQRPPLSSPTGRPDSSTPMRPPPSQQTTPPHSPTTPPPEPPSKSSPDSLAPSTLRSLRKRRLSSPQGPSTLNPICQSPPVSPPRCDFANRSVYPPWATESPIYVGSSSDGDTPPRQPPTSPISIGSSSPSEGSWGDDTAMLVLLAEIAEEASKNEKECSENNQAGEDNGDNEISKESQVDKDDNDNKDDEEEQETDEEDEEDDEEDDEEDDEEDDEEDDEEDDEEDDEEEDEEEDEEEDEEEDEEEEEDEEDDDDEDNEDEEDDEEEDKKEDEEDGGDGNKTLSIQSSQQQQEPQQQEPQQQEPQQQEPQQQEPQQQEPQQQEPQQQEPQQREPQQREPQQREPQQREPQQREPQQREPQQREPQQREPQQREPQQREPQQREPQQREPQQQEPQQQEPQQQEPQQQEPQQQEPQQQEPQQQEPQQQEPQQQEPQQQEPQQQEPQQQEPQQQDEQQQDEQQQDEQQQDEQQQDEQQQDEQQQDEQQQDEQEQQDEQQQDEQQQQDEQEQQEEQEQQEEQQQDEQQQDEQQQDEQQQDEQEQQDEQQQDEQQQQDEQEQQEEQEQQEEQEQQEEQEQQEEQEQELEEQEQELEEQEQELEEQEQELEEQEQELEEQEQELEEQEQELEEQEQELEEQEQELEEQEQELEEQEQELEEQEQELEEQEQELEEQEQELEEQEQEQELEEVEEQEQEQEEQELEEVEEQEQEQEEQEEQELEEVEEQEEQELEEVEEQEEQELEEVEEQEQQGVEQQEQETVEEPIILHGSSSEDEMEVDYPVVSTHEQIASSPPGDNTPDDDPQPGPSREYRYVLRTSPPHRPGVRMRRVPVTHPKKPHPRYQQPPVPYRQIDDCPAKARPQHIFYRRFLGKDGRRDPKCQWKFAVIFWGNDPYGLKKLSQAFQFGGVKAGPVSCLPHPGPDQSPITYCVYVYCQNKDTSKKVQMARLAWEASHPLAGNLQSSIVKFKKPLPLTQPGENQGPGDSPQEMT
* hit, by the source's call; i = inactive; x = no result given. This is a subset; count on the stated rates, not on these rows.

molecule,ALR H2O2 inh,E coli growth,FGF22 binding,Beta2AR agonist,HNF4A DNA FP,UCH37 DUB inh,LANA-H2B inh
Cc1c(C(=O)N2CCCC2)c(S(=O)(=O)NCC(C)c2ccccc2)c(C)n1C (centres undefined),4,0.66,i,2,0.8,2.1,7.0
CC(=O)C1=NOC(CNC(=O)c2c(-c3ccccc3Cl)noc2C)C1 (centres undefined),x,0.74,x,-1,-0.7,-1.5,7.2
CCCc1nc(N)c(C#N)c(-c2ccco2)c1CC,0,0.72,x,-6,-0.5,-28,-6.3
O=C(O)c1ccc2c(c1)OCCO2,-6,0.64,x,-1,0.2,1.3,2.5
CC[C@@H](C)[C@@H]1CN([C@@H](C)CN2CCC[C@H]2CN2C(N)=NC[C@H]2C(C)C)C(=N)N1CCc1ccc(Cl)c(Cl)c1,x,0.62,i,2,-0.9,2.0,x
CCOCCCNC(=O)Cc1c(C(=O)O)[nH]c2ccc(Cl)cc12,-5,0.71,i,1,-2.5,4.1,-1.0
c1ccc(CSc2nnc(-c3ccco3)n2Cc2ccccc2)cc1,3,0.74,x,-8,-0.2,2.0,-6.3
COc1ccc(C2CC(c3ccccc3)=NN2C(=O)c2cccs2)cc1 (centres undefined),-8,0.72,x,10,2.2,1.7,5.6
Cc1ccc(S(=O)(=O)N2[C@@H](c3cccc(Cl)c3)C(C(=O)O)=CC[C@H]2c2ccc(Cl)c(Cl)c2)cc1,9,x,i,-1,-3.8,2.6,-2.9
COc1cccc(COC(=O)C2CC(=O)N(Cc3ccco3)C2)c1OC (centres undefined),0,0.63,i,-2,-1.9,-0.4,-0.5
NC(=O)C1CCN(C(=O)c2cnn(-c3ccccc3)c2NC(=O)c2cccc(F)c2)CC1,0,0.69,i,0,-0.8,-0.9,-2.7
CCOC(=O)C1CCCN(C(=O)c2cccc(S(=O)(=O)N3CCOCC3)c2)C1 (centres undefined),-1,0.66,i,2,3.5,2.4,2.5
Cc1ccc(S(=O)(=O)NNc2ccccc2)cc1,100*,0.7,i,9,-1.5,1.1,-0.1
Cc1ccc2c(c1)N(Cc1ccc([N+](=O)[O-])cc1)C=NS2(=O)=O,-8,0.67,i,-12,0.7,0.3,-8.0
Cn1nnnc1SCC(=O)N1N=C(c2ccc(Cl)cc2)CC1c1ccco1 (centres undefined),-8,x,i,-15,-2.1,x,2.4
Cc1[nH]c2ccc(Br)cc2c(=O)c1CN1CCCCCC1,-5,0.63,i,8,10,3.3,2.1
O=C(c1ncn(Cc2ccccc2)c1C(=O)N1CCc2ccccc2C1)N1CCc2ccccc2C1,0,0.67,i,9,1.3,0.8,-1.0
COC(=O)[C@H](C)N1C/C=C\COc2c(Cl)cc(Cl)cc2S1(=O)=O,x,0.68,i,-2,-1.4,3.3,x
O=C(CCNC(=O)c1ccc(Cl)cc1)NCc1ccccc1Cl,x,0.69,i,3,-1.0,-0.6,x
Cc1ccc(OCC(=O)NCCNC(=O)c2cnccn2)cc1,-3,0.68,i,-4,1.7,1.2,-6.3
Cc1ccc(NC(=O)CN(C)S(=O)(=O)c2ccc3c(c2)c(=O)n(C)c(=O)n3C)cc1,-3,0.66,i,5,0.1,2.1,4.2
COc1ccccc1NC(=O)CCC(=O)N/N=C(/C)c1ccc(C)cc1,-1,x,i,-1,1.6,x,1.0
O=S(=O)(c1ccccc1)C1CON(Cc2ccccc2)C1c1ccccc1 (centres undefined),-3,0.7,i,1,6.7,4.3,3.4
CN(C)S(=O)(=O)N1CCC(Oc2ccc(C(=O)N3CCCCCCC3)cc2)CC1,-3,0.68,i,-2,0.6,0.3,5.3
COc1ccc(S(=O)(=O)N2CCOC2CNC(=O)C(=O)NCc2ccncc2)cc1C (centres undefined),x,0.75,i,1,-1.7,2.7,5.4
C=C(C)CSc1nncn1/N=C/c1ccc(OC)cc1,3,x,x,0,1.5,x,1.7
O=C(OCc1ccccc1)N1CCC2CC1c1cc(-c3ccc4c(c3)OCO4)ccc12 (centres undefined),x,x,i,4,3.0,x,x
CCCCn1nc2cc(C(=O)NCCCCc3ccccc3)ccc2c1OCC,-6,0.66,i,-2,-4.3,-16,8.2
CCOc1ccc(NC(=O)C2CCC(C)(C(=O)O)C2(C)C)cc1 (centres undefined),-5,0.67,x,6,0.1,0.1,2.6
Cc1onc(-c2c(Cl)cccc2Cl)c1/C(N)=N/OC(=O)C1CC1,17,0.66,x,2,-1.6,6.9,-1.2

Two compounds drawn at random from those above, as already listed:
molecule,ALR H2O2 inh,E coli growth,FGF22 binding,Beta2AR agonist,HNF4A DNA FP,UCH37 DUB inh,LANA-H2B inh
O=C(O)c1ccc2c(c1)OCCO2,-6,0.64,x,-1,0.2,1.3,2.5
Cc1ccc(OCC(=O)NCCNC(=O)c2cnccn2)cc1,-3,0.68,i,-4,1.7,1.2,-6.3

Continuation:
molecule,ALR H2O2 inh,E coli growth,FGF22 binding,Beta2AR agonist,HNF4A DNA FP,UCH37 DUB inh,LANA-H2B inh
Cc1nc(N)sc1-c1csc(Nc2ncccn2)n1,x,0.71,i,37,5.7,4.9,x
Cc1c(C#N)c2ccccc2n1CC(=O)NCc1ccccc1,-2,0.75,x,-4,-0.4,-0.3,1.6
Cc1cc(C)cc(C(=O)Nc2ccncc2)c1,-1,0.64,i,-13,-1.4,4.1,-0.4
O=c1oc2cc(OCc3ccc(F)cc3F)ccc2cc1-c1ccccn1,-2,0.72,x,-6,-2.1,-168,0.9
Nc1ccc2c(c1)C/C(=C/c1ccco1)C2=O,1,0.63,x,-1,-37,-281,-1.7
Cc1ccsc1C(C(=O)NC(C)(C)C)N(Cc1ccco1)C(=O)c1csnn1 (centres undefined),-1,0.69,i,-14,-0.8,-0.6,2.5
COc1ccc(-c2cc(C(=O)N3CCCC(C(F)(F)F)C3)c3ccccc3n2)cc1OC (centres undefined),x,0.73,i,6,-0.5,-41,x
O=C(Nc1nnc(-c2ccccc2Cl)o1)c1ccco1,7,0.72,x,-3,2.6,-0.4,2.0
CC1CCN(CC(=O)Nc2ccc(S(=O)(=O)N3CCC(C)CC3)cc2)CC1,x,0.64,i,-2,-0.7,2.2,1.9
O=C(C1CCCCC1)N1CCC(CO)(Cc2ccccc2Cl)CC1,-7,0.68,i,0,1.8,3.6,2.3
Cc1cc(=O)oc2cc(NC(=O)c3ccccc3OC(F)F)ccc12,0,0.65,i,-8,-1.1,i,6.9
Cc1cc(CN(C)Cc2c(C(=O)N3CCCCCCC3)nc3ccc(Cl)cn23)n[nH]1,1,0.72,i,2,2.4,6.2,-0.8
COc1ccc(S(=O)(=O)N2CCC(C(=O)N3CCCCCC3)CC2)cc1,-3,0.74,x,-1,3.6,-2.6,5.2
O=C(CS(=O)c1cccc(C(F)(F)F)c1)Nc1ccc(Cl)cc1Cl (centres undefined),-7,0.74,x,0,5.0,5.8,10.0
CC(=O)c1cccc(S(=O)(=O)N2CCCC(c3nc4c(nnn4Cc4ccc(C)cc4)c(=O)[nH]3)C2)c1 (centres undefined),-6,0.65,i,-4,4.2,3.9,-4.5
CCC(=O)Nc1ccc(C(=O)CSc2nc3ccc(C)cc3[nH]2)cc1,43,0.67,x,-10,-3.2,4.9,x
CSc1nn2cc(CCN3CCOCC3)c(-c3ccc(F)cc3)nc2c1C#N,-4,0.68,i,9,0.9,0.8,3.0
CCCn1ncc(C(=O)N(C)C2CCCN(Cc3ccccc3F)C2)c1C (centres undefined),0,0.69,i,-6,1.9,1.0,-4.1
Nc1nnc(SCC(=O)OCc2ccc(Cl)c(Cl)c2)s1,21,0.68,x,8,3.7,5.3,-1.3
O=C(O)c1ccccc1C(=O)N1CCN(c2ccccc2)CC1,x,0.74,x,1,-1.0,-1.8,-1.1
COc1ccc(-c2cc(-c3ccccc3)nc(Cl)n2)cc1OC,0,0.68,i,-5,-2.0,-161,1.9
COc1ccc(CC2(CO)CCN(C(C)Cc3ccc(Cl)cc3)CC2)cc1 (centres undefined),-4,0.69,i,5,-2.2,1.8,1.1
O=C(COC(=O)c1ccccc1Br)Nc1nnc(-c2ccccc2)o1,2,0.62,i,-1,1.5,-2.1,-3.1
COCCC(=O)N1CCC(Oc2ccc(C(=O)N3C[C@@H]4CCC[C@H]3C4)cc2)CC1,-9,0.64,i,9,-0.2,0.2,-1.7
COc1ccc(S(=O)(=O)N(CCc2ccccc2)CC(=O)NC(C)C)cc1,-11,0.72,x,-6,1.8,3.1,6.2
CCOC(=O)C1=NN(C(C)=O)C2(CC(=O)N(c3cc(C)cc(C)c3)C2=O)C1 (centres undefined),-8,0.7,x,2,4.8,0.7,-1.5
CCc1c(N)nc(N)nc1Nc1ccccc1C,x,0.67,x,-9,6.8,2.9,x
CN1CCN(C(=O)CCC(=O)O)CC1,-4,0.7,i,9,-1.5,1.6,1.6
CNC(=S)N1N=C(c2ccc(OC)cc2)CC1c1ccccc1Cl (centres undefined),-8,0.68,i,-2,1.9,2.9,3.1
CC(C)CC(=O)c1c[nH]c(C(=O)NCCCN2CCOCC2)c1,-14,0.74,x,1,-3.4,2.0,-1.9

Taken from above:
`CCOC(=O)C1=NN(C(C)=O)C2(CC(=O)N(c3cc(C)cc(C)c3)C2=O)C1` (centres undefined) in ALR H2O2 inh → -8
`O=C(Nc1nnc(-c2ccccc2Cl)o1)c1ccco1` in UCH37 DUB inh → -0.4
`Cc1ccsc1C(C(=O)NC(C)(C)C)N(Cc1ccco1)C(=O)c1csnn1` (centres undefined) in LANA-H2B inh → 2.5

Entries above that have a thiophene ring, fused or not (two):
molecule,ALR H2O2 inh,E coli growth,FGF22 binding,Beta2AR agonist,HNF4A DNA FP,UCH37 DUB inh,LANA-H2B inh
COc1ccc(C2CC(c3ccccc3)=NN2C(=O)c2cccs2)cc1 (centres undefined),-8,0.72,x,10,2.2,1.7,5.6
Cc1ccsc1C(C(=O)NC(C)(C)C)N(Cc1ccco1)C(=O)c1csnn1 (centres undefined),-1,0.69,i,-14,-0.8,-0.6,2.5

(cont.)
molecule,ALR H2O2 inh,E coli growth,FGF22 binding,Beta2AR agonist,HNF4A DNA FP,UCH37 DUB inh,LANA-H2B inh
CCN(CC(=O)Nc1c(F)cccc1F)C(=O)c1cc(C)oc1C,2,0.68,i,2,0.8,2.8,-2.0
CCOC(=O)C1(CCOC)CCN(C(C)CCc2ccc(OC)cc2)CC1 (centres undefined),-18,0.68,i,-1,2.1,-0.6,-2.3
FC(c1nc2ccccc2[nH]1)C(F)(F)F (centres undefined),x,0.71,i,1,2.8,1.4,x
CCOC(=O)Cc1cc(=O)n2[nH]c(C)c(C#N)c2n1,8,0.68,x,3,-4.4,0.6,-0.3
COC(=O)C1=C(C)N(C)C(=O)NC1c1ccc(O)c(OC)c1 (centres undefined),25,0.73,i,-3,2.4,8.1,0.1
Cc1cc(Oc2nnnn2-c2ccccc2)ccc1Cl,-16,0.72,x,-6,0.8,3.2,1.5

Compound activity as filed in PubChem.
